Mtb growth: Confirmatory growth inhibition assay against Mycobacterium tuberculosis H37Rv, potency (AID 1949) | hit rate 1.6% among 100,000 | inhibition, % at 10 µg/mL; hits with a dose series show IC50 in µg/mL | most inactive calls were filed without a number and no value below 0 was filed;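 active = confirmed in a dose series; inconclusive = about 50% or more but not retested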;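 also: bacteria grown 7 days with compound before Alamar blue readout; 0% = untreated bacteria and 100% = reference antibiotic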
An asterisk follows results filed as active; i = inactive; ? = inconclusive. These rows are one share of the data; count on the stated rates, not on these rows.

SMILES	Mtb growth
CC1CCc2nc3sc4c(c3c(N)c2C1)CCCC4 (stereo not given)	1.1µg/mL*
O=C(COc1ccc(Cl)cc1)Nc1ccccc1C(=O)N1CCCC1	i
COc1ccccc1CNC(=S)Nc1cc(C)cc(C)c1	13%
COc1ccc2c(C)c(CC(=O)O)c(=O)oc2c1	i
COC(=O)C1Cc2c([nH]c3ccccc23)C(C(C)C)N1 (stereo not given)	i
Cc1ccc(S(=O)(=O)n2c(=O)n(S(=O)(=O)c3ccc(C)cc3C)c3ccccc32)c(C)c1	i
CN(C)CCNC(=S)Nc1cccc(Cl)c1	i
CC(C)(C)NS(=O)(=O)Cc1ccc(Cl)cc1	i
Cc1cc(NC(=O)CN(c2cc(Cl)ccc2C)S(C)(=O)=O)ccc1Br	45%
CC(C)(C)c1cc(Cl)c(O)c(NC(=O)c2cccnc2)c1	i
Cc1cc(C)c(OCCCN2CCCC(C)C2)c(Br)c1 (stereo not given)	i
CCOc1ccc(NC(=O)c2cnn(-c3ccccc3)c2NC(=O)c2cccc(F)c2)cc1	2%
COC(=O)c1ccccc1NC(=O)COc1ccc(S(=O)(=O)NC2CCCCC2)cc1Cl	i
COC(=O)c1cc(S(=O)(=O)N2CCOCC2)c(Cl)cc1Cl	i
CC(C)(C)c1ccc(S(=O)(=O)NCCOCC(F)(F)C(F)F)cc1	2%
CC(C)Oc1ccc(C(CC(=O)O)Cc2ccccc2)cc1 (stereo not given)	i
COc1ccc(Cl)cc1NC(=O)c1cc2ccccc2cc1OC	i
Cc1ccc(N(C(C)C(=O)Nc2ccccc2-c2ccccc2)S(C)(=O)=O)cc1 (stereo not given)	i
O=S(=O)(c1ccc(Br)s1)N1CCN(c2cccc(C(F)(F)F)c2)CC1	2%
CCc1ccc(CN2CCC(C(=O)N3CCN(c4ccccc4F)CC3)CC2)cc1	3%
CC(NC(=O)COc1ccc(S(=O)(=O)NCCc2ccccc2)cc1)c1ccccc1 (stereo not given)	i
CN(C)c1ccc(CNCCCN2CCOCC2)cc1	i
CSc1nnnn1-c1cccc2ccccc12	i
Fc1ccc(C2=CSC3=NCCN23)cc1	i
CS(=O)(=O)N(CC(=O)Nc1ccccc1C(F)(F)F)c1ccccc1	i
SMILES	Mtb growth
Cn1cccc1/C=C(/C#N)c1nc(-c2cccs2)cs1	i
Cc1c(C#N)sc2nc(-c3ccccc3)nc(N3CCN(c4ccccc4)CC3)c12	3%
Cc1ccc(-c2cc(C(=O)Nc3cc(C)on3)c3ccccc3n2)cc1	i
CCc1ccc(OCC(=O)Nc2ccc(S(=O)(=O)N3CCCCC3)cc2)c(Br)c1	i
O=C(NCCC1=CCCCC1)Nc1ccc([N+](=O)[O-])cc1	12µg/mL*
O=c1c2c(nc3cc(-c4cccc(Cl)c4)[nH]n13)CCCC2	9%
O=C(Nc1nccs1)c1ccc(S(=O)(=O)c2ccccc2)cc1	i
O=C(O)c1cccc(COc2cccc(Cl)c2)c1	i
Cc1c(O)ccc2c(C(F)(F)F)cc(=O)oc12	5%
CCOC(=O)CSc1nc2c(c(=O)n(C)c(=O)n2C)n1Cc1ccc(Br)cc1	i
COC(=O)c1ccccc1NC(=O)C1CCN(C(=O)c2cc(OC)cc(OC)c2)CC1	i
Cc1ccc(/C=C2\CCCC3=C2NC(=S)NC3c2ccc(C)cc2)cc1 (stereo not given)	1%
O=C(Nc1ccc(N2CCCC2)cc1)c1ccc(-c2ccc(Br)cc2)o1	i
COCCCNCCCOc1ccc(OCc2ccccc2)cc1	i
COc1ccc2c(c1)CC(C1(O)C(=O)N(C)c3ccccc31)C2=O (stereo not given)	i
O=C(O)C1CC(c2ccccc2Cl)=NO1 (stereo not given)	i
OCCCNc1nc(-c2ccc(Cl)cc2)nc2ccccc12	?
CCc1ccc(NC(=O)CN(c2ccc(OC)c(OC)c2)S(=O)(=O)c2ccccc2)cc1	i
O=C(NCC1CCN(C(=O)C2CCCCC2)CC1)C1CCCCC1	i
CCSc1nnc(NC(=O)c2ccc(C)o2)s1	2%
CCCC(=O)Nc1ccc(Cl)c(NC(=O)COc2ccc(Cl)cc2C)c1	i
C=CCNC(=S)NC(=O)c1cccc2ccccc12	2%
NC(=O)c1c(NC(=O)c2cc(Cl)ccc2Cl)sc2c1CCCCC2	i
Cc1ccc(OCCN2CCNCC2)c([N+](=O)[O-])c1	i
Cc1cc(C)nc(NC(=O)C2CCCC2)c1	i
SMILES	Mtb growth
Cc1cccc(NC(=O)C(Cc2ccccc2)N2C(=O)c3ccccc3C2=O)c1 (stereo not given)	i
Cc1cccc(-n2c(SCC(=O)NC3CCCCC3)nc(O)cc2=O)c1	11%
O=C(Nc1ccc(N2CCCCC2)cc1)c1cccs1	i
COc1ccc(NC(=S)Nc2c(C)n(C)n(-c3ccccc3)c2=O)cc1Cl	i
O=C1c2ccccc2C(=O)N1CC(=O)n1nnc2ccccc21	i
O=C(CCCC(=O)Nc1nc2ccc(Cl)cc2s1)Nc1nc2ccc(Cl)cc2s1	4%
C=CCn1c(CNC(=O)c2ccco2)nnc1SCC(=O)Nc1nc2ccccc2s1	i
COc1ccc([N+](=O)[O-])cc1NC(=O)COc1cc(C)cc(C)c1	i
Cn1c(SCc2ccccc2C#N)nnc1-c1ccc(NC(=O)c2ccc(F)cc2)cc1	i
COc1ccc(CCNC2CC(=O)N(Cc3ccccc3)C2=O)cc1OC (stereo not given)	i
CCOc1ccc(NC(=O)NCCc2ccc(OC)c(OC)c2)cc1	i
O=C(Nc1cc(Br)ccc1O)c1cnn2c1NC(c1cccs1)CC2C(F)(F)F (stereo not given)	i
COc1ccc(Cl)cc1N(CC(=O)Nc1ccc2c(c1)OCCO2)S(C)(=O)=O	i
COC(=O)c1ccc(/C=C/N(C)C)c([N+](=O)[O-])c1	i
CCOC(=O)c1c(-c2ccc(C)cc2)csc1NC(=O)C(C)C	14%
Cc1ccc(NC(=O)CN(c2ccc(I)cc2)S(C)(=O)=O)cc1	2%
Clc1ccc(CSc2n[nH]c(-c3ccccc3)n2)cc1	3%
CCOCCCNC(=O)c1cc(Cl)ccc1OC	i
Cc1c(Cl)cccc1NC(=S)NNC(=O)C(C)Oc1ccc(F)cc1F (stereo not given)	0%
Cc1ccc(Cl)cc1N1CCN(S(C)(=O)=O)CC1	i
Cc1ccccc1-n1cnc2c(sc3nc(N4CCOCC4)c4c(c32)CC(C)(C)OC4)c1=O	7%
CCSc1nc2ccc(I)cc2c(=O)n1C	7%
COc1cc(S(=O)(=O)NCc2ccccc2)c(OC)cc1Br	i
CN(c1cccc(NC(=O)CN2C(=O)c3cccc4cccc2c34)c1)S(C)(=O)=O	i
O=C1NN=C2C3CC(CC12)C1=NNC(=O)C1C3 (stereo not given)	1%
SMILES	Mtb growth
C=CCn1c(SCC(=O)N2CCCC2)nc2scc(-c3ccco3)c2c1=O	i
Cc1c(CN(C)C(=O)c2ccc(COc3ccc(Cl)cc3)cc2)cnn1C	2%
N#Cc1ccc(C(=O)Nc2ccccc2OC(F)F)c(F)c1	i
COc1ccc(C2C(=C=N)C(=S)NC3=C2C(=O)CC(C)(C)C3)cc1OC (stereo not given)	i
CC1(C(=O)c2ccccc2)C2c3c(ccc4ccccc34)OC(=O)C21C(=O)N1CCOCC1 (stereo not given)	i
O=C(CSCc1c(Cl)cccc1Cl)NN1C(=O)c2ccccc2C1=O	i
O=C(Nc1nnc(CCC2CCCCC2)s1)c1cccc(F)c1	i
CCSc1nnnn1-c1ccccc1	i
COc1ccc(NC2=CC(=O)CC(c3ccc(OC)cc3)C2)cc1 (stereo not given)	0%
Cc1ccc2nc(S(=O)(=O)O)[nH]c2c1	i
Cn1c(Cc2cccc3ccccc23)nnc1SCC(=O)Nc1cccc(Cl)c1	i
COC(=O)c1sc(NC(=O)c2ccc(OC)cc2OC)nc1C	i
CS(=O)(=O)N(CC(=O)Nc1cccc(C(F)(F)F)c1)c1cccc([N+](=O)[O-])c1	i
COc1ccc(CCNC(=S)NNC(=O)Cc2cccn2C)cc1OC	1%
N#CC1=C(N)Oc2cc(Nc3ccccc3)ccc2C1c1ccncc1 (stereo not given)	?
Cc1cccc(OCC(=O)Oc2ccccc2[N+](=O)[O-])c1	i
C=CCc1ccc(OCC(O)CN2CCN(c3ccccc3)CC2)c(OC)c1 (stereo not given)	?
CC(=O)Nc1ccc(-c2nnc(SCC(=O)NCc3ccc(C)cc3)n2C)cc1	i
CCOC(=O)Nc1nc(C)c(C(C)=O)s1	2%
COc1cc(Br)c(S(=O)(=O)N2CCN(C)CC2)cc1OC	i
CCOc1ccc(CNC(=S)NNC(=S)Nc2ccc(Br)cc2)cc1	15%
CC(=O)Nc1ccccc1NC(=O)c1ccc(C)c(C)c1	i
COc1ccc(-n2ncc3c(N4CCN(c5ccccc5F)CC4)ncnc32)cc1	i
CC(NC(=O)NCC1CCCO1)(C(F)(F)F)C(F)(F)F (stereo not given)	i
CCOC(=O)N1CCN(C2CC(=O)N(c3cccc(Br)c3)C2=O)CC1 (stereo not given)	i
SMILES	Mtb growth
CN1CCN(c2ccccc2NC(=S)NC(=O)c2ccccc2Br)CC1	4%
N#Cc1nc(Cc2ccccc2)oc1NCc1ccco1	i
Cc1ccc(-n2c(-c3cccnc3)n[nH]c2=S)c(C)c1	i
Cc1onc(-c2c(F)cccc2Cl)c1C(=O)NC1CCS(=O)(=O)C1 (stereo not given)	4%
Cc1cccc(NC(=O)C(=O)NCc2cccnc2)c1C	4%
CN(c1cccc(NC(=O)CN(c2ccc(F)cc2)S(C)(=O)=O)c1)S(C)(=O)=O	i
CCOC(=O)c1c(NC(=O)CSc2nnc(-c3cccs3)n2CC)sc2c1CCCC2	8%
COc1ccc(CNC(=O)c2ccccc2I)cc1OC	i
COc1ccccc1OCCn1c(S(=O)(=O)O)nc2ccccc21	3%
Cc1cc(C(F)(F)F)nc(Nc2nc3ccccc3s2)n1	i
S=C(NC(=NCc1ccccc1)c1ccc(Cl)cc1Cl)N1CCOCC1	1%
Cc1nc(-c2ccc(NS(C)(=O)=O)cc2)cs1	i
COCCNC(=S)NNC(=O)OC(C)(C)C	i
CNC(=O)C(=O)Nc1ccc(OC)cc1	2%
Cc1sc2ncn(Cc3ccc([N+](=O)[O-])cc3)c(=O)c2c1-c1ccc(Br)cc1	16%
CC(=O)NC(c1ccccc1)c1cc([N+](=O)[O-])c2cccnc2c1O (stereo not given)	i
CCOc1ccc(NC(=O)CSc2nnc(COc3ccc(C)cc3)n2CC)cc1	i
CCc1cccc(C)c1NC(=O)COc1cccc(C)c1	i
COc1cccc(CNC(=O)C(=O)Nc2cccc(C(F)(F)F)c2)c1	i
Cc1ccc(-n2c(SCc3cccc(C(F)(F)F)c3)nnc2-c2ccncc2)cc1	17%
O=C(C1CCCC1)N1CCN(c2cccc(Cl)c2)CC1	1%
COc1cccc(C(=O)n2cnnc2N)c1OC	i
Cc1cc(C(F)(F)F)nc(SCC(=O)c2ccc(Br)cc2)n1	i
COC(=O)Cc1c(C)nc2nc(-c3ccco3)[nH]n2c1=O	i
O=C(Nc1ccccc1Cl)c1cccc(COc2ccc3c(c2)CCC3)c1	i
SMILES	Mtb growth
Fc1ccc(CNC(=S)Nc2cccc(Cn3cccn3)c2)cc1	i
CCOc1ccc(N=C(N)N=C(N)N)cc1	i
CC(C)c1ccc(NC(=O)C2CC2)cc1	i
COc1cc(C2NC(=O)NC(C)=C2C(=O)c2ccccc2)cc(OC)c1OC (stereo not given)	i
O=S(=O)(Nc1cccc(C(F)(F)F)c1)c1cccc(F)c1	i
O=C(c1ccccc1F)N1CCN(c2ccc([N+](=O)[O-])c(N3CCCC3)c2)CC1	i
CC(=O)OC1=Cc2c(ccc3ccc(=O)oc23)OC1(C)C	i
COc1cccc(-c2cc(C(F)(F)F)c3c(N)c(C(C)=O)sc3n2)c1	3%
C=CCn1c(SCC(=O)Nc2ccccc2C(F)(F)F)nnc1-c1cccc(C)c1	i
O=C(Oc1ccccc1Cl)C1CC(=O)N(c2ccc(F)cc2)C1 (stereo not given)	i
Cc1ccc(NC(=S)N(C)N)cc1Cl	i
CC(C)Oc1ccc(C(=O)NC(=S)Nc2cc(C(F)(F)F)ccc2N2CCCC2)cc1	i
Cn1c(SCCC(=O)O)nnc1-c1ccncc1	i
O=C(O)CSCc1ccccc1Br	i
CC(C)C(=O)NCCc1nc2ccccc2n1CCC1CCCCC1	i
COc1ccc(-c2c(C)oc3cc(OCC(=O)c4ccccc4)ccc3c2=O)cc1OC	i
CCOC(=O)c1sc(NC(=O)CSc2nnc(N)s2)nc1C	i

In the list so far, these contain an aryl thioether with sulfur outside any ring:
SMILES	Mtb growth
CSc1nnnn1-c1cccc2ccccc12	i
CCOC(=O)CSc1nc2c(c(=O)n(C)c(=O)n2C)n1Cc1ccc(Br)cc1	i
CCSc1nnc(NC(=O)c2ccc(C)o2)s1	2%
Cc1cccc(-n2c(SCC(=O)NC3CCCCC3)nc(O)cc2=O)c1	11%
C=CCn1c(CNC(=O)c2ccco2)nnc1SCC(=O)Nc1nc2ccccc2s1	i
Cn1c(SCc2ccccc2C#N)nnc1-c1ccc(NC(=O)c2ccc(F)cc2)cc1	i
Clc1ccc(CSc2n[nH]c(-c3ccccc3)n2)cc1	3%
CCSc1nc2ccc(I)cc2c(=O)n1C	7%
C=CCn1c(SCC(=O)N2CCCC2)nc2scc(-c3ccco3)c2c1=O	i
CCSc1nnnn1-c1ccccc1	i
Cn1c(Cc2cccc3ccccc23)nnc1SCC(=O)Nc1cccc(Cl)c1	i
CC(=O)Nc1ccc(-c2nnc(SCC(=O)NCc3ccc(C)cc3)n2C)cc1	i
CCOC(=O)c1c(NC(=O)CSc2nnc(-c3cccs3)n2CC)sc2c1CCCC2	8%
CCOc1ccc(NC(=O)CSc2nnc(COc3ccc(C)cc3)n2CC)cc1	i
Cc1ccc(-n2c(SCc3cccc(C(F)(F)F)c3)nnc2-c2ccncc2)cc1	17%
Cc1cc(C(F)(F)F)nc(SCC(=O)c2ccc(Br)cc2)n1	i
C=CCn1c(SCC(=O)Nc2ccccc2C(F)(F)F)nnc1-c1cccc(C)c1	i
Cn1c(SCCC(=O)O)nnc1-c1ccncc1	i
CCOC(=O)c1sc(NC(=O)CSc2nnc(N)s2)nc1C	i
